Arbovirus anti: antivirals against arbovirus infection, primary screen, cell-based, full library, 10K replicate subset; AID 1251, 2008; 0.37% of 200,000 active; inhibition, % at 10 µM; arbovirus infection cell-based antiviral screen;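 active = inhibition from about 30%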;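 note: bluetongue infection of BSR cells; cell survival read as ATP light after 72 h; 0% = infected wells without compound and 100% = uninfected wells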
YopH inh: YopH tyrosine phosphatase inhibitors, primary screen, biochemical, fluorescence Ex485/Em525. 0.16% of 140,000 active. inhibition, %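 (about 10 µM by stock and volumes)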;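 active = inhibition of 50% or more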;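 note: controls were vehicle for no effect and minimum signal wells for full effect; inactives centre near -20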
Mtb betalactam: beta-lactam sensitization of Mtb H37Rv, H37Rv | M. tuberculosis H37Rv growth with meropenem, percent inhibition; hits of this screen are not shown here | 0.27% of 330,000 active | inhibition, % at 25 µM;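 active = about 74% or more and at least 40 points above the plate without the antibiotic, then above 30% in a dose series; inconclusive = first-round hits that could not be retested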;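 note: growth measured after seven days incubation then overnight dye step; 0% = bacteria only wells and 100% = bacteria with antibiotic; twin plates without the antibiotic show which effects depend on it; some results filed as inactive read as strong as hits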
RecA splice inh: Mtb RecA intein splicing inhibitors, primary screen, biochemical, fluorescence, HTS | Protein RecA (Mycobacterium tuberculosis (strain ATCC 25618 / H37Rv)), P9WHJ3 | 0.75% of 290,000 active | AID 2221, 2009 | inhibition, %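 (about 9 µM by stock and volumes)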 | cell-free RecA intein splicing; in the data active = inhibition above about 30%; inconclusive = no clear call, values can overlap the other calls;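 note: 0% = vehicle wells and 100% = reference inhibitor control wells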
Target sequence (P9WHJ3 whole entry, looked up, canonical isoform): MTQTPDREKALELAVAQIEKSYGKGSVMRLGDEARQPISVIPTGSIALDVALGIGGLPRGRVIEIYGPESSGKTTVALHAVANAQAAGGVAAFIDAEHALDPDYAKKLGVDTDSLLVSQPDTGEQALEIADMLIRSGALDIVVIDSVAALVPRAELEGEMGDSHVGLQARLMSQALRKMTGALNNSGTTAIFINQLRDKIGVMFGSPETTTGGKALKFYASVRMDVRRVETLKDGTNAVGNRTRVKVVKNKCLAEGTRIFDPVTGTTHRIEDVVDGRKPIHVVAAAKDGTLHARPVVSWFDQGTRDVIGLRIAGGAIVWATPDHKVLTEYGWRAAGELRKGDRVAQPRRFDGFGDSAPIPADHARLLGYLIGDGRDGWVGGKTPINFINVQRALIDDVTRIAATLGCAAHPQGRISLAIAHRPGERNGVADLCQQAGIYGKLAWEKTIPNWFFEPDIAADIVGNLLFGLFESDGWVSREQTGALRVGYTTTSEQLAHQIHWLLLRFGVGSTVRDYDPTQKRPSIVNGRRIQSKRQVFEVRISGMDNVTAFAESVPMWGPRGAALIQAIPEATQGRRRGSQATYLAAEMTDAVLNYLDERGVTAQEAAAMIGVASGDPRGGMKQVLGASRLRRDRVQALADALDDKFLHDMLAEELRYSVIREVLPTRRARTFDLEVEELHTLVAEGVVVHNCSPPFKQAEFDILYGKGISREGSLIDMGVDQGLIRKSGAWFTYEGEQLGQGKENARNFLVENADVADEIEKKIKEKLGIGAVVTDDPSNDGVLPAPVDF
Mtb growth: M. tuberculosis H37Rv growth inhibitors, H37Rv strain (AID 1626) | M. tuberculosis H37Rv growth inhibition; higher % means a stronger effect | inhibition, % at 10 µM; hits with a dose series show IC50 in µM | 0.95% of 220,000 active;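 active = confirmed in a dose series; inconclusive = inhibition above 80% but not taken into the dose series; inactive = below 80% or under 30% at every dose of the series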;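 note: bacteria incubated seven days before Alamar blue readout; 0% = bacteria only wells and 100% = bacteria with antibiotic wells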
Arbovirus anti repeat: further read-out of Arbovirus anti, marked with its call; inhibition, %; measured here: 10K subset replicate screen; many hits read low in the repeat;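 first of two repeat runs on a subset; 0% = infected and 100% = uninfected wells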
* = called active by the depositor.

Results for COc1cc(NC(=O)CCCSc2nc(-c3ccco3)cc(C(F)(F)F)n2)cc(OC)c1OC ?
Arbovirus anti: 0.8; YopH inh: -17.0; Mtb betalactam: -3.9; RecA splice inh: 10.0; Mtb growth: 2.8%

Results for CCOc1ccc(N2C(=O)CC(N3CCc4ccccc43)C2=O)cc1 (configuration not stated) ?
Arbovirus anti: -0.7; YopH inh: -5.2; Mtb betalactam: 8.9; RecA splice inh: 3.8; Mtb growth: -2.6%

How did Cc1ccc(NC(=O)c2scc3c2CCCC3)cc1 do in these assays?
Arbovirus anti: 2.7; YopH inh: -7.1; Mtb betalactam: 8.4; RecA splice inh: 1.1; Mtb growth: 14.6%

What do the screens show for `CN(Cc1ccccc1)C(=O)c1cc(=O)[nH]c2ccccc12`?
Mtb betalactam: -6.3; RecA splice inh: -0.5

How did CCC(C)c1c(O)nc(SCC(=O)N2CCOCC2)[nH]c1=O (configuration not stated) do in these assays?
Arbovirus anti: 2.8; YopH inh: -2.0; Mtb betalactam: -0.1; RecA splice inh: -3.6; Mtb growth: -2.8%

What do the screens show for `Cc1ccccc1-c1nc2ccccc2o1`?
Arbovirus anti: -2.3; YopH inh: -38.7; Mtb betalactam: -6.0; RecA splice inh: -1.6; Mtb growth: -10.5%

Results for CCOc1ccc(CSCCNC(=S)Nc2ccccc2)cc1 ?
Arbovirus anti: 12.7; YopH inh: -4.0; Mtb betalactam: 3.2; RecA splice inh: 5.3; Mtb growth: 2.3%

What do the screens show for `CCCOc1ccc(C2C(C(=O)c3ccc(C)o3)=C(O)C(=O)N2Cc2ccco2)cc1` (configuration not stated)?
Mtb betalactam: -13.5; RecA splice inh: 4.6

How did CN(C)Cc1ccccc1Cc1ccccc1 do in these assays?
Arbovirus anti: -1.1; YopH inh: -22.0; Mtb betalactam: -1.6; RecA splice inh: -2.8; Mtb growth: -3.5%

What do the screens show for `N#Cc1c(-c2ccccc2Cl)c2c([nH]c1=O)-c1ccccc1OC2`?
Mtb betalactam: -13.4; RecA splice inh: -286.6; Mtb growth: -2.1%

Results for O=C(Nc1ccc(F)cc1)c1cccnc1 ?
Mtb betalactam: -4.6; RecA splice inh: -0.1

What do the screens show for `Cc1cccc(CNC(=O)CCn2ccc3cc(S(=O)(=O)N4CCCC4)ccc32)c1`?
Mtb betalactam: 1.7; RecA splice inh: 1.7

How did Cc1ccc(-c2[nH]ncc2C(=O)c2ccc(Br)cc2)c(O)c1 do in these assays?
Mtb betalactam: 9.9; RecA splice inh: 4.3

How did N=C1c2ccccc2CN1NC(=O)c1ccc(Br)o1 do in these assays?
Mtb betalactam: 4.1; RecA splice inh: 0.4

Results for COc1cccc(Nc2c(F)c(OC)c(F)c(F)c2C(=O)O)c1 ?
Arbovirus anti: 0.6; YopH inh: -40.7; Mtb betalactam: -11.1; RecA splice inh: -6.7; Mtb growth: 0.1%

What do the screens show for `COc1c(C(C)C)cc(NC(C)=O)cc1C(C)C`?
Arbovirus anti: 2.6; YopH inh: -7.8; Mtb betalactam: 4.1; RecA splice inh: 0.6; Mtb growth: 3.4%

Results for CCOc1ccc(CCNC(=O)CN2C(=O)c3cccnc3Oc3ccc(C)cc32)cc1OCC ?
Mtb betalactam: inconclusive; RecA splice inh: 1.4

What do the screens show for `Cn1ccs/c1=N\C(=O)Nc1ccccc1`?
Arbovirus anti: -0.2; Mtb betalactam: 2.6; RecA splice inh: -1.0; Mtb growth: 4.1%

How did Cc1onc(-c2c(Cl)cccc2Cl)c1C(=O)N1C(C)CCCC1C (configuration not stated) do in these assays?
Mtb betalactam: 8.2; RecA splice inh: 81.1*

Results for O=C1/C(=C\c2ccc(Cl)cc2Cl)N2CCC1CC2 ?
Mtb betalactam: -2.8; RecA splice inh: 1.8; Mtb growth: 5.4%

Results for Nn1cc(-c2ccccc2)nc1SCC(=O)NCCN1C(=O)CSC1=O ?
Arbovirus anti: -0.6; YopH inh: -61.6; Mtb betalactam: -5.7; RecA splice inh: -2.4; Mtb growth: -3.6%

Results for CCc1nnc(NS(=O)(=O)c2ccc(NC(=S)NC(=O)/C=C/c3ccc(F)cc3)cc2)s1 ?
Arbovirus anti: 2.1; YopH inh: -16.3; Mtb betalactam: 3.3; RecA splice inh: -3.0; Mtb growth: -0.6%

How did O=C(CCS(=O)(=O)c1cc(Br)cc2c1N(C(=O)C1CC1)CC2)N1CCN(c2ccccn2)CC1 do in these assays?
Arbovirus anti: 1.5; Mtb betalactam: -7.3; RecA splice inh: 2.8; Mtb growth: 4.8%

What do the screens show for `CCCN1CC(=O)N2Cc3[nH]c4ccccc4c3C[C@H]2C1=O`?
Mtb betalactam: -4.7; RecA splice inh: -4.0

What do the screens show for `Cc1nc2sccn2c(=O)c1S(=O)(=O)NC(C)c1ccccc1` (configuration not stated)?
Mtb betalactam: -5.5; RecA splice inh: 1.2

How did O=C1C(Cc2ccccc2)SC(=Nc2ccccc2)N1c1ccccc1 (configuration not stated) do in these assays?
Arbovirus anti: 8.3; YopH inh: -21.6; Mtb betalactam: -1.7; RecA splice inh: 7.8

Results for COc1ccc(C(=O)NNC(=O)C2=NN(c3ccccc3)C(=O)CC2)cc1 ?
Mtb betalactam: 42.6; RecA splice inh: 2.3

What do the screens show for `C[C@@H]1O[C@@H](O[C@H]2[C@H](Oc3cc(O)c4c(c3)O[C@H](c3ccc(O)cc3)CC4=O)O[C@H](CO)[C@@H](O)[C@@H]2O)[C@H](O)[C@H](O)[C@H]1O`?
Arbovirus anti: -1.9; Mtb betalactam: -0.5; RecA splice inh: 2.2; Mtb growth: -0.3%

How did CC1(C)CC(=O)C=C(Nc2cccc(O)c2)C1 do in these assays?
Arbovirus anti: 2.8; YopH inh: -41.9; Mtb betalactam: -2.9; RecA splice inh: -1.5; Mtb growth: -3.6%

How did COc1ccc(Cl)cc1NC(=O)C/C(C)=N/NC(=O)CCc1ccccc1 do in these assays?
Mtb betalactam: 5.1; RecA splice inh: 8.0

What do the screens show for `O=C(CCc1ccccc1)NNC(=O)c1cc(Cl)ccc1O`?
Mtb betalactam: 3.5; RecA splice inh: 7.8

Results for CC(C)COC(=O)CCn1[nH]c(=O)c2ccccc2c1=O ?
Arbovirus anti: -2.2; YopH inh: -18.8; Mtb betalactam: -4.9; Mtb growth: -11.0%

How did O=C(Nc1cccc(S(=O)(=O)N2CCOCC2)c1)c1ccc(N2CCOCC2)c([N+](=O)[O-])c1 do in these assays?
Arbovirus anti: -1.9; YopH inh: -48.9; Mtb betalactam: 3.1; RecA splice inh: -1.1; Mtb growth: 0.3%

How did CCC(C)NC(=O)CCn1c(-c2ccc(F)cc2)cc(C(C)=O)c1C (configuration not stated) do in these assays?
Arbovirus anti: 16.8; Mtb betalactam: -7.6; RecA splice inh: 0.6; Mtb growth: -2.7%

How did COCCN(C(=O)COC(=O)/C=C/c1ccc(C)o1)c1c(N)n(Cc2ccccc2)c(=O)[nH]c1=O do in these assays?
Mtb betalactam: -0.4; RecA splice inh: 2.2

How did O=C(Oc1ccc(C(=S)N2CCOCC2)cc1)c1ccccc1[N+](=O)[O-] do in these assays?
Mtb betalactam: 11.7; RecA splice inh: -3.2

What do the screens show for `Cn1c(=O)[nH]c(=O)c2c1nc(SCC(=O)O)n2CCCc1ccccc1`?
Mtb betalactam: -1.1; RecA splice inh: -3.9

How did CCOc1ncccc1C(=O)N1CCN(Cc2ccc3c(c2)OCO3)CC1 do in these assays?
Arbovirus anti: 1.8; YopH inh: -15.9; Mtb betalactam: -4.0; RecA splice inh: 0.4; Mtb growth: 4.8%

How did CC1(C)Cc2cccc(OCC(=O)NCc3ccccc3)c2O1 do in these assays?
Mtb betalactam: 0.7; RecA splice inh: 0.2

What do the screens show for `Cc1[nH]c(=S)[nH]c(=O)c1Cc1ccccc1`?
Arbovirus anti: 2.6; YopH inh: -38.8; Mtb betalactam: 15.5; Mtb growth: -3.0%

Fetched one by one from the list above (3):
What do the screens show for `CCCN1CC(=O)N2Cc3[nH]c4ccccc4c3C[C@H]2C1=O`?
Mtb betalactam: -4.7; RecA splice inh: -4.0

Results for COc1ccc(C(=O)NNC(=O)C2=NN(c3ccccc3)C(=O)CC2)cc1 ?
Mtb betalactam: 42.6; RecA splice inh: 2.3

Results for Nn1cc(-c2ccccc2)nc1SCC(=O)NCCN1C(=O)CSC1=O ?
Arbovirus anti: -0.6; YopH inh: -61.6; Mtb betalactam: -5.7; RecA splice inh: -2.4; Mtb growth: -3.6%

Next section.
Results for COC(=O)c1nn(-c2ccc(OC)cc2)c(=O)cc1Sc1ccc(C)cc1 ?
Arbovirus anti: 0.1; Mtb betalactam: -2.1; RecA splice inh: 8.8; Mtb growth: 1.6%

How did COc1ccc(OC)c(NC(=O)CSc2nnc(Cc3cccn3C)n2CCc2ccccc2)c1 do in these assays?
Arbovirus anti: 6.8; YopH inh: 1.1; Mtb betalactam: 43.9; RecA splice inh: -2.5; Mtb growth: 6.5%

How did CC12C=CC3(CN(Cc4ccccc4)C(=O)C3C1C(=O)NC1CC1)O2 (configuration not stated) do in these assays?
Arbovirus anti: 7.8; YopH inh: -37.6; Mtb betalactam: -4.7; RecA splice inh: -0.7; Mtb growth: -8.8%

Results for COc1ccc(OC)c(/C=C/C(=O)NC2=NCCS2)c1 ?
Arbovirus anti: -2.3; Mtb betalactam: -8.6; RecA splice inh: -3.3; Mtb growth: -1.4%

How did CCOC(=O)C(C)Oc1ccc(NC(=O)C(Cl)Cl)cc1 (configuration not stated) do in these assays?
Mtb betalactam: 100.0; RecA splice inh: -2.8; Mtb growth: inconclusive

Results for Cc1c(C(=O)N2CCCC2)c(S(=O)(=O)Nc2cccc(Br)c2)c(C)n1C ?
Mtb betalactam: -9.1; RecA splice inh: 1.2

Results for CCCCC1CCC(C(=O)N(CCOC)c2c(N)n(CCCC)c(=O)[nH]c2=O)CC1 (configuration not stated) ?
Mtb betalactam: 0.7; RecA splice inh: -2.2

What do the screens show for `O=C(O)CCc1nnc(SCC(=O)Nc2ccc(Cl)c(C(F)(F)F)c2)[nH]c1=O`?
Arbovirus anti: 25.1; Mtb betalactam: -3.6; RecA splice inh: 1.1; Mtb growth: 0.3%

How did CC(C)OC(=O)CC1C(=O)NCCN1C(=O)COc1ccc(C(C)(C)C)cc1 (configuration not stated) do in these assays?
Mtb betalactam: -5.5; RecA splice inh: 0.3

How did CCCC(=O)Nc1ccc2c(c1)nc1n2CCN(C2CCCCC2)C1 do in these assays?
Arbovirus anti: 6.7; Mtb betalactam: 12.9; RecA splice inh: -5.5; Mtb growth: -0.9%

How did COc1cc(C2NC(=O)NC(C)=C2C(=O)OCc2ccc(C)cc2)cc(OC)c1O (configuration not stated) do in these assays?
Arbovirus anti: -0.3; YopH inh: -30.4; Mtb betalactam: 2.4; RecA splice inh: -3.2; Mtb growth: -6.0%; Arbovirus anti repeat: 4.0

What do the screens show for `N#Cc1c(Cl)nc(N/N=C/c2ccccc2)c(Cl)c1Cl`?
Arbovirus anti: -4.2; YopH inh: -16.1; Mtb betalactam: 3.1; RecA splice inh: 4.1; Mtb growth: 23.8%

How did CCOC(=O)c1cnc(-n2[nH]c(C)c(Cc3ccccc3)c2=O)[nH]c1=O do in these assays?
Arbovirus anti: 4.5; Mtb betalactam: 2.8; RecA splice inh: 33.0*; Mtb growth: 8.2%

How did COC(=O)c1cc(=O)nc2sc(-c3ccc(F)cc3)nn12 do in these assays?
Arbovirus anti: 3.0; YopH inh: -27.1; Mtb betalactam: -1.8; RecA splice inh: -0.3; Mtb growth: -6.7%

How did NC(=O)CSc1ncnc2c1cnn2Cc1ccccc1 do in these assays?
Arbovirus anti: 3.2; YopH inh: -26.4; Mtb betalactam: 7.1; RecA splice inh: -2.1; Mtb growth: -0.8%

How did CC(C)NC(=O)C1CCN(Cc2cnn(-c3ccccc3)c2-n2cccc2)CC1 do in these assays?
Arbovirus anti: -1.9; YopH inh: 2.0; Mtb betalactam: -1.8; RecA splice inh: -0.3; Mtb growth: -2.3%

What do the screens show for `COc1ccc(NC(=O)COC(=O)/C=C/c2ccccc2[N+](=O)[O-])cc1OC`?
Arbovirus anti: -11.3; YopH inh: -25.3; Mtb betalactam: -3.4; RecA splice inh: -2.9; Mtb growth: 4.2%

What do the screens show for `CN(c1cccc(NS(=O)(=O)c2cccs2)c1)S(C)(=O)=O`?
Arbovirus anti: 10.0; YopH inh: -23.1; Mtb betalactam: -7.7; RecA splice inh: 0.5; Mtb growth: -6.5%

How did O=C1CCC(C(=O)OCC(=O)N2N=C3/C(=C/c4ccccc4)CCCC3C2c2ccccc2)N1 (configuration not stated) do in these assays?
Arbovirus anti: 7.9; YopH inh: -3.3; Mtb betalactam: 5.0; RecA splice inh: 15.7; Mtb growth: -5.6%

These rows are one share of the data; the hit share may differ from the screen's.
